# FGF22 binding: binders of recombinant human FGF22 by thermal shift; Q9HCT0; SYPRO orange fluorescence; percent of sucrose octasulfate shift, DMSO zero; calls only at 9.99 µM; actives 1.5% (n = 340,000); AID 651658;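 active = melting point raised past a set limit in the mean and every replicate; inconclusive = no clear call; three in four hits are not shown here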
# Target sequence (Q9HCT0 whole entry, looked up): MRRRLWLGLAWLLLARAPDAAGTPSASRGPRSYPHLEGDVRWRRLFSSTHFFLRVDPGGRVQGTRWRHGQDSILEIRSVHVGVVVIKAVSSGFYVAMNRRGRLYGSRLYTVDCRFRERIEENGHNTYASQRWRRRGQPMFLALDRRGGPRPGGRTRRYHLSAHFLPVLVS
# AF4-AF9 inh: blocks AF4 peptide binding to human AF9; P42568; AlphaScreen, biotin-AF4 peptide binding to FLAG-AF9; inhibition, % at 10 µM; actives 0.47% (n = 350,000);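 active = every replicate reaching a set inhibition limit, whatever the replicate mean, cut at about 25% in these data; inconclusive = mean inhibition reaches that limit but some replicates miss it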;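 note: 0% = plate neutral control median and 100% = total signal loss; the record names both 10 and 1 µM as test concentration; the first replicate is given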
# Target sequence (P42568 whole entry, looked up): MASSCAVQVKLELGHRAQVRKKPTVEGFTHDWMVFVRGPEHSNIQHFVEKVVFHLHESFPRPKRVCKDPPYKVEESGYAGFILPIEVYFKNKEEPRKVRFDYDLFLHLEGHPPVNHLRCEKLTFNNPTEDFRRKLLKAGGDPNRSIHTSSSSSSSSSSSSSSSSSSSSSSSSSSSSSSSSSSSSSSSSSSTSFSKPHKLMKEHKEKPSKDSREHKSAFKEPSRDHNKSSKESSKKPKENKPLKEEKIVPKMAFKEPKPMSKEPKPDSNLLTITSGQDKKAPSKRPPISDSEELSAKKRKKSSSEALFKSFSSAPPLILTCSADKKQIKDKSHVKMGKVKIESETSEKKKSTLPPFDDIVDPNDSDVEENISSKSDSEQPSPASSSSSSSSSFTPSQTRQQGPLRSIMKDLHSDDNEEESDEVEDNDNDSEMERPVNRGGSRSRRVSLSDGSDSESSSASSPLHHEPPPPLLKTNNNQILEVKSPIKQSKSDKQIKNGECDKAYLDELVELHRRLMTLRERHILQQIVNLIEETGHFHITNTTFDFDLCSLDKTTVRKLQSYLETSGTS
# Ecoli growth: E. coli growth inhibition; AID 1053175; Escherichia coli growth, OD600, 23 h; active compounds read low; OD600 absorbance (concentration not given with the values); actives 0.21% (n = 330,000);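 active = OD600 absorbance below the run mean of sample wells minus 3.6 SD, in any replicate, cut at about 0.56 in these data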;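 note: stock transfer was 300 nL into about 60 µL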
# Ecoli rRNA inh: inhibits bacterial ribosomal RNA function over humanized ribosomes | E. coli WT GFP vs humanized-ribosome RFP mutants, fluorescence, 24 h; active compounds read low; DMSO median 0, no signal -100 | GFP signal change (wild-type ribosome), % (test concentration not listed) | actives 1.6% (n = 350,000) | AID 720706;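 active = significant combined selectivity score with lowered wild-type GFP, culture density cut under 30%, mutant RFP and density less affected; inactive = any of these conditions unmet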; note: one replicate is shown; some compounds called inactive have numbers as strong as hits
# T cruzi inh: blocks replication of Trypanosoma cruzi; T. cruzi beta-gal in NIH3T3, luminescence, 90 h; inhibition, % (concentration not given with the values); actives 1.4% (n = 300,000);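 active = mean inhibition across valid replicates above about 55%, limit read from the data; inconclusive = mean below that limit but half or more replicates reach it; inactive = mean below it, under half of replicates reach it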;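 note: signal also drops with host cell toxicity which is not excluded here; 0% = plate median of DMSO wells and 100% = zero luminescence signal; higher percent means less beta-gal luminescence so fewer parasites; stock transfer was 50 nL into about 50 µL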
# A1 inh: inhibitors of the anti-apoptotic protein A1, read as caspase activation. actives 0.066% (n = 330,000). caspase activation, % (test concentration not listed). MEF A1-2A-BIM cells, Caspase-Glo 3/7 luminescence, 3 h; percent of clofoctol response, vehicle zero;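 active = over half of replicate activation scores above 10%, or exactly half above 10 with the replicate mean above 10; inconclusive = replicate mean below 10 yet half the replicates above 10; inactive = over half of replicates below 10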;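 note: wells of about 30 µL received 50 nL stock; many hits fall short of the cut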
# UCH37 inh: inhibitors of human deubiquitinating enzyme UCH37; Q9Y5K5; purified proteasome/UCH37, Ub-AMC cleavage fluorescence; inhibition, % (concentration not given with the values); actives 0.33% (n = 330,000);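 active = mean of two replicates above 20%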;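 note: 0% = compound-free wells with enzyme and 100% = wells lacking proteasome; stock transfer was 100 nL into about 20 µL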
# Target sequence (Q9Y5K5 whole entry, looked up): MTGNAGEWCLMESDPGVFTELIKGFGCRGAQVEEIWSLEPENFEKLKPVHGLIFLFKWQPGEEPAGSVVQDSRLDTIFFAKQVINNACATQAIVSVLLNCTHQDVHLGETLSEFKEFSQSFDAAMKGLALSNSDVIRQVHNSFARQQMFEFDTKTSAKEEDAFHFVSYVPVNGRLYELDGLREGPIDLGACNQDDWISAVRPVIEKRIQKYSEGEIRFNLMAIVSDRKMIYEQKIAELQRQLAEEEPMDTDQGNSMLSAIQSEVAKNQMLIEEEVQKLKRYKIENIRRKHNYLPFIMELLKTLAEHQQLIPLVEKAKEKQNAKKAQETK
#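 Material: Human UCH37 enzyme supplied as purified proteasome complex | Schedule: 30 min preincubation with enzyme, 25 min cleavage at room temperature | Detection: AMC fluorescence 355/460 nm | Measure: % inhibition of Ub-AMC cleavage fluorescence | Controls: Wells without proteasome as full block, compound-free enzyme plus substrate as uninhibited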
# Beta cell apopt: blocks beta cell apoptosis; INS-1E cytokine-induced death, ATP luminescence, 48 h; percent of positive-control rescue, neutral wells zero; protection from apoptosis, % (test concentration not listed); actives 0.8% (n = 300,000); AID 435005;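 active = all replicates at 75% or more, or half of them and the mean; inconclusive = half reach 75% but not the mean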;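 note: 0% = cytokine-treated negative control wells and 100% = positive control rescue; higher means more ATP so stronger rescue from cytokine killing; wells of about 40 µL received 100 nL stock; the first replicate is given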
# Ecoli rRNA inh OD600: recorded beside Ecoli rRNA inh, whose call it bears; OD600 change, %; measured here: OD600 growth;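 optical density of the mix in the first replicate; 0 = DMSO median and -100 = no signal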
# Ecoli rRNA inh RFP: second read-out of Ecoli rRNA inh, no call of its own (marks repeat the call); RFP signal change, %; measured here: RFP humanized mutant strains;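 first replicate; 0 = DMSO median and -100 = no signal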
# * marks the source's active call; other numbers are inactive results; i = inactive; ? = inconclusive; / = no result given; & = joins results of further samples. These rows are one share of the data; the hit share may differ from the screen's.
SMILES,FGF22 binding,AF4-AF9 inh,Ecoli growth,Ecoli rRNA inh,Ecoli rRNA inh OD600,Ecoli rRNA inh RFP,T cruzi inh,A1 inh,UCH37 inh,Beta cell apopt
O=C(COC(=O)Cc1ccc(S(=O)(=O)N2CCOCC2)s1)Nc1ccccc1Cl,i,-0.6,0.7,3,11,17,/,-1.1,0.2,1
CN(C)/C=C(\C(=O)c1ccccc1)c1nnnn1-c1ccc(F)cc1,i,-2.8,0.69,18,5,-1.2,-20,0.2,6.2,0
COC1OC(COC(=O)CNC(=O)OC(C)(C)C)C(O)C(O)C1O (centres undefined),/,/,0.69,/,/,/,-40,-0.1,0.6,0
O=C(CNC1CC1)Nc1cc(C(F)(F)F)ccc1Cl,i,?,0.64,6,2,-0.6,-17,1.2,1.0,-2
CCOC(=O)N1CCC(N(CCOC)C(=O)Nc2ccc(CC)cc2)CC1,/,/,0.67,/,/,/,4,-0.6,3.1,0
C[C@H](Nc1ncnc2sc3c(c12)CCC3)C(=O)O,/,/,0.78,/,/,/,0,2.8,-2.3,-5
CCOC(=O)c1[nH]c(C)c(C(=O)Nc2ccc3c(c2)OCCO3)c1C,/,/,0.67,/,/,/,-5,0.2,1.1,-3
CC(C)CNC(=O)c1ccc(Cl)c(Cl)c1,/,/,0.69,/,/,/,3,-5.6,0.3,-1
NC(=O)[C@@H]1CC2(CC(c3cccc(NC(=O)COc4ccc(Cl)cc4)c3)=NO2)CN1C(=O)COc1ccc(Cl)cc1 (some centres undefined),i,-2.3,/,0,-18,18,53,-0.4,0.5,9
Cc1cccc(NC(=O)Cn2cnc3c(oc4ccccc43)c2=O)c1,i,-5.5,/,0,-9,-0.6,-16,-0.7,/,-3
Cc1noc(C)c1NC(=O)Nc1cccc2c1O[C@H](CN(C)S(=O)(=O)c1ccc(F)cc1)[C@@H](C)CN([C@H](C)CO)C2=O,i,-1.7&0.7,0.75,0&24,2&9,-0.8&1.6,/,-0.1,-0.1,-5
CCCCn1c(SCC(N)=O)nnc1-c1ccco1,i,2.7,0.72,7,-8,3.2,-2,1.9,5.2,-2
CC(C)(CNC(=S)NCCc1ccccc1)CNC(=S)NCCc1ccccc1,/,0.0,0.72,-53,-73,-8.9,65*,/,1.3,/
CC1CC(C)CN(C(=O)C(C)N2CCN(S(=O)(=O)c3ccc(C(F)(F)F)cc3)CC2)C1 (centres undefined),i,-2.4,0.67,-16,-53,5.9,/,/,-0.9,/
CCOC(=O)CSc1nc(C)c2cc(OC)ccc2n1,/,/,0.67,/,/,/,-9,-1.3,-186,4
O=c1oc2ccccc2c(Cl)c1CN1CCCCC1,i,1.4,0.62,-19,-21,-4.1,39,-0.1,4.0,1
CCCCOc1ccc(/C(O)=C2/C(=O)C(=O)N(CCCOC)C2c2ccncc2)cc1C (centres undefined),/,/,0.63,-18,-13,2.5,-2,-0.4,13,0
Cc1ccnc(SCC(=O)Nc2sc3c(c2C#N)CCCC3)n1,/,/,0.7,/,/,/,13,-0.4,1.2,106*
CC[C@]12c3[nH]c4ccc(OC)cc4c3CCN1C(=O)C(CC(=O)NCCN1CCOCC1)C[C@@H]2C(=O)N1CCN(C(=O)C2CC2)CC1 (some centres undefined),i,-0.2,0.71,0,11,-0.6,/,/,1.3,/
COc1ccc(CN(C)c2ccc(S(=O)(=O)N3CCN(C)CC3)cc2[N+](=O)[O-])cc1OC,i,10,0.71,/,/,/,/,0.2,1.1,102*
COC(=O)Cn1c(=NC(=O)c2ccc(Cl)s2)sc2cc(F)ccc21,/,/,0.67,/,/,/,5,0.8,-183,1
CCOc1ccccc1NC(=O)C1CC(=O)n2ncnc2N1 (centres undefined),/,/,0.67,/,/,/,-14,?,1.9,0
O=C(Nc1ccccc1)C1=C[C@H](c2coc3ccccc3c2=O)C[C@H](OCCCCO)O1,i,-2.5&1.5,/,-17,-5,25,-8,-0.3,2.8,3
O=[N+]([O-])c1ccc(Oc2ccc(-c3cnc4ccccc4n3)cc2[N+](=O)[O-])cc1,i,1.8,0.75,27,31,-6.8,28,0.4,3.0,10
CCCN(CCC)C(C(=O)Nc1cccc(OC)c1)c1ccccc1 (centres undefined),/,/,0.72,/,/,/,17,-0.1,3.9,-2
SMILES,FGF22 binding,AF4-AF9 inh,Ecoli growth,Ecoli rRNA inh,Ecoli rRNA inh OD600,Ecoli rRNA inh RFP,T cruzi inh,A1 inh,UCH37 inh,Beta cell apopt
CC(C(=O)NC1=NCCS1)N1C(=O)c2ccccc2C1=O (centres undefined),/,/,0.69,/,/,/,1,-0.9,2.3,-8
COc1ccc(SCC(=O)c2cc(C)c(OC(=S)N(C)C)c(C)c2)cc1,/,/,0.73,/,/,/,11,0.2,5.1,8
COc1ccc(C2(C)NC(=O)N(CC3CCCCC3)C2=O)cc1 (centres undefined),i,3.3,0.67,2,-13,5.2,5,-0.3,5.1,-20
O=C(CSc1nc(O)c(C(c2ccccc2)c2ccccc2)c(=O)[nH]1)N1CCOCC1,i,1.4,0.68,0,-9,-3.9,-6,0.6,2.5,-1
O=C(NCC1CCCO1)C(c1ccccn1)N(Cc1ccccc1Cl)C(=O)CN1C(=O)c2ccccc2S1(=O)=O (centres undefined),i,-2.4,0.66,2,9,-0.2,0,0.4,-0.1,-3
COCCNC(=O)/C(C#N)=C/c1ccccc1Br,i,1.0,0.66,-10,18,2.4,-13,0.8,-1.3,-10
COc1ccc(N2CC(C(=O)O)CC2=O)cc1 (centres undefined),i,-1.3,0.65,-2,-6,4.9,-18,0.2,2.1,/
COc1ccc(C)cc1NC(=O)C(Sc1ccccc1)c1ccccc1 (centres undefined),/,/,0.74,/,/,/,-3,-0.2,6.8,4
CCCCC(Sc1nc(N)c(NC(=O)c2ccc(OC)cc2)c(=O)[nH]1)C(=O)O (centres undefined),i,1.5,0.66,6,9,-0.5,-4,1.2,-2.3,-6
CCCC(=O)Nc1ccc(-c2csc(NNC(C)=O)n2)cc1,i,-5.0,0.61,0,7,0.0,-17,1.7,2.6,1
CCCCn1c(N)c(N(CC(C)C)C(=O)c2ccc(N3C(=O)CCC3=O)cc2)c(=O)[nH]c1=O,i,-2.0,0.64,12,7,2.6,-4,0.1,-0.8,-3
C[C@H](CO)N1C[C@H](C)[C@@H](CN(C)Cc2ccc(Cl)c(Cl)c2)Oc2c(NS(=O)(=O)c3ccc(F)cc3)cccc2C1=O,i,2.1&2.4,0.79,0&-1,1&-10,2.6&7.0,/,-0.3,1.9,-18
O=C1c2ccccc2C2(c3ccccc3)NCCCN12 (centres undefined),i,1.8,0.64,23,13,1.2,-7,0.5,-2.8,-4
CC(C)N(Cc1ccccc1)C(=O)CN1c2cccc3cccc(c23)S1(=O)=O,i,-16,0.67,-10,-16,7.4,/,1.6,-47,-9
Cc1cc(C(=O)NC2CC(C)(C)Cc3c2cnn3-c2ccc(F)cc2)nn1C (centres undefined),i,-8.6,0.65,-4,-3,-1.9,-8,/,2.7,/
Cc1ccc(S(=O)(=O)N(C)CC(=O)N2CC(C)OC(C)C2)cc1 (centres undefined),i,-1.1,0.75,6,7,-1.8,-14,?,-0.3,1
COc1ccc(C(C(=O)NC2CCCCC2)N(C(=O)CCl)c2ccccc2Cl)cc1 (centres undefined),/,/,0.71,/,/,/,14,-0.4,2.0,7
Cc1ccc(NC(=O)CSc2nnc(C3CC3)n2CC2CCCO2)cc1C (centres undefined),i,-0.6,0.7,3,7,7.6,3,-0.2,3.9,-8
CCS(=O)(=O)c1c(S(=O)(=O)CC)c2ccccn2c1C(N)=O,/,-5.4,0.68,14,17,-0.6,-11,-1.7,3.1,0
CN1CCN(NC(=O)CC(C)(C)C)CC1,i,2.3,0.68,0,5,-1.1,-6,-0.2,-0.2,-2
O=C(Nc1cccnc1)c1noc2c1CCCCC2,i,-11,0.72,0,-7,-13,0,-6.3,2.2,-2
CC1CCN(S(=O)(=O)N2CCN(C(=O)c3ccc4c(c3)OCO4)CC2)CC1,i,-10.0,0.71,-3,7,-1.6,2,0.8,2.4,6
COc1ccc(CCN2C(=O)C3CC=C(C)CC3C2=O)cc1OC (centres undefined),/,/,0.72,/,/,/,4,0.7,2.6,-4
NC(=O)c1ccc(NC(=O)CC23CC4CC(CC(Br)(C4)C2)C3)cc1,i,-2.4,/,5,17,0.8,-1,-0.1,/,-4
Cc1ccc2[nH]c(C)cc(=S)c2c1,i,0.5,0.65,3,19,2.7,/,/,11,/

# Gathered by group: the entries above with bromine (2)
SMILES,FGF22 binding,AF4-AF9 inh,Ecoli growth,Ecoli rRNA inh,Ecoli rRNA inh OD600,Ecoli rRNA inh RFP,T cruzi inh,A1 inh,UCH37 inh,Beta cell apopt
COCCNC(=O)/C(C#N)=C/c1ccccc1Br,i,1.0,0.66,-10,18,2.4,-13,0.8,-1.3,-10
NC(=O)c1ccc(NC(=O)CC23CC4CC(CC(Br)(C4)C2)C3)cc1,i,-2.4,/,5,17,0.8,-1,-0.1,/,-4

# Carrying on:
SMILES,FGF22 binding,AF4-AF9 inh,Ecoli growth,Ecoli rRNA inh,Ecoli rRNA inh OD600,Ecoli rRNA inh RFP,T cruzi inh,A1 inh,UCH37 inh,Beta cell apopt
Cc1csc(SC(C)C(=O)Nc2ccc(F)cc2Cl)n1 (centres undefined),i,-3.6,0.66,-15,-24,-5.3,/,-0.2,1.0,-7
CC(SC(C)C(=O)NN=Cc1c[nH]c2ccccc12)C(=O)NN=Cc1c[nH]c2ccccc12 (centres undefined),i,-2.3,0.67,2,5,0.0,/,/,6.2,/
Cc1cccc(C2=N/C(=C/c3cccs3)C(=O)O2)c1,i,1.6,0.73,-2,5,-0.2,-15,-0.6,2.2,-5
CCOC(=O)C1CCCN(CCC(=O)Nc2ccc(C)c(C)c2)C1 (centres undefined),/,0.9,0.69,-3,0,-2.8,14,0.8,0.0,-4
NC(=O)COC(=O)c1ccccc1OCc1ccccc1Cl,i,-0.6,0.63,-5,-7,1.8,-2,0.7,-2.8,4
CC(=O)c1cccc(NC(=S)NC(=O)c2cccc(Cl)c2)c1,/,/,0.65,/,/,/,3,-2.3,0.1,/
Clc1ccc(Cl)c(OCCCCNCc2ccccc2)c1,i,1.2,/,3,-35,34,28,0.7,/,6
Cc1ccccc1NC(=S)N(CCCN1CCOCC1)Cc1cccnc1,i,-3.5,0.69,14,3,-3.6,5,0.4,3.4,-3
O=S(=O)(NCc1ccccc1)NCc1cccc(C(F)(F)F)c1,i,-1.5,0.68,-11,-7,2.8,-2,0.2,2.5,-9
O=[N+]([O-])c1ccc(O)c(C2=NNC(c3ccccc3F)C2)c1 (centres undefined),i,-8.6,0.61,-54*,-16*,-14*,4,-1.8,2.4,27
CCOc1cc(N2CCOCC2)c(OCC)cc1NC(=O)COC(=O)c1cc(C)oc1C,/,/,0.71,/,/,/,27,0.3,2.7,-3
